LANA-H2A inh: blocks KSHV LANA binding to histone H2A/H2B; Q9QR71; cell-free LANA-H2A/H2B peptide, fluorescence polarization; inhibition, % (no concentration beside the values); 320,000 compounds, 0.6% hits; AID 2629; in the data active means inhibition mostly above about 10%, no sharp cut-off; inactive means mostly below about 6.7%;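 further: stock transfer was 7.5 nL into about 10 µL; 0% = median of vehicle wells and 100% = median of positive control wells; one replicate is shown; the record names a cut of 25% in any replicate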
UCH37 DUB inh: blocks the human deubiquitinase UCH37. Q9Y5K5. purified proteasome/UCH37, Ub-AMC cleavage fluorescence. inhibition, % (test concentration not listed). 330,000 compounds, 0.33% hits. AID 588478;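 active means mean of two replicates above 20%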;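 further: 0% = compound-free wells with enzyme and 100% = wells lacking proteasome; stock transfer was 100 nL into about 20 µL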
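Signal – fluorescence, ex 355 nm, em 460 nm · System – Proteasome-bound UCH37 · Input – 0.15 nM proteasome as dispensed · Timing – 30 min preincubation with enzyme, 25 min cleavage at room temperature · Read-out basis – percent inhibition of cleavage signal versus uninhibited and no-proteasome wells · Medium – Tris-HCl pH 7.4 with ATP-MgCl2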
Ecoli growth: inhibitors of Escherichia coli growth. OD600, 23 h; hits give low values. OD600 absorbance (concentration not given with the values). 330,000 compounds, 0.21% hits. AID 1053175;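 active means OD600 absorbance below the run mean of sample wells minus 3.6 SD, in any replicate, cut at about 0.56 in these data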;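 further: stock transfer was 300 nL into about 60 µL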
HNF4A DNA FP: change in binding of human HNF4 alpha to DNA. HNF4a-FITC DNA binding, fluorescence polarization, 1 h. activity change, % at 10 µM. 360,000 compounds, 0.3% hits. AID 1224865; in the data active means activity change above about 30%, passing the limit was not always enough;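 further: controls were the assay level and a saturating level of protein; the project sought stronger binding though the title names inhibitors; some compounds called inactive have numbers as strong as hits; positive values seem to mean higher polarization but the record does not say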
Target sequence (P41235 whole entry, looked up): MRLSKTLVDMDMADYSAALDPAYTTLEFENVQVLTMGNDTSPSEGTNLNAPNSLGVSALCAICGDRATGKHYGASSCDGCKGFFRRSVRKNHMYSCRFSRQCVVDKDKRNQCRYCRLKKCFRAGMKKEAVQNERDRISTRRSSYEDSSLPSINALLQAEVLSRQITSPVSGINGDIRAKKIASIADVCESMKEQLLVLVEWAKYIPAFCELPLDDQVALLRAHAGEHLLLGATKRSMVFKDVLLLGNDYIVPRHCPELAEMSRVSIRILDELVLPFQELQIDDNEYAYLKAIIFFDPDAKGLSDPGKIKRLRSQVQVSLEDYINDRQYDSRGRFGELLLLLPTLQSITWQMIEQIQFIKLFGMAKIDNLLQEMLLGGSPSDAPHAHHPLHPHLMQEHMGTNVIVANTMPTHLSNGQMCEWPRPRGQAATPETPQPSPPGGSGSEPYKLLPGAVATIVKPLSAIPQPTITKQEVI
FGF22 binding: FGF22 (human) thermal shift binding. Q9HCT0. recombinant FGF22 thermal shift, SYPRO orange fluorescence; percent of sucrose octasulfate shift, DMSO zero. calls only at 9.99 µM. 340,000 compounds, 1.5% hits. AID 651658;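 active means melting point raised past a set limit in the mean and every replicate; three in four hits are not shown here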
Target sequence (Q9HCT0 whole entry, looked up): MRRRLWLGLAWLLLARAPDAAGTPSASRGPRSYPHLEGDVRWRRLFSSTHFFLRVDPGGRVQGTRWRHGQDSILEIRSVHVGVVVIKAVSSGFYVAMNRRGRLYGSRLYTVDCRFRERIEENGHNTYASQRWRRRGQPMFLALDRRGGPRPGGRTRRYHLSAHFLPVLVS
ALR H2O2 inh: inhibitors of human sulfhydryl oxidase ALR. AID 485317. inhibition, % (concentration not given with the values). purified ALR, DTT oxidation, H2O2 HRP-luminol luminescence. 290,000 compounds, 3.8% hits;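 active means mean and each replicate at 75% or more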;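 further: stock transfer was 7.5 nL into about 7.5 µL; 0% = neutral wells and 100% = wells with inactivated enzyme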
Target sequence (P55789 whole entry, looked up): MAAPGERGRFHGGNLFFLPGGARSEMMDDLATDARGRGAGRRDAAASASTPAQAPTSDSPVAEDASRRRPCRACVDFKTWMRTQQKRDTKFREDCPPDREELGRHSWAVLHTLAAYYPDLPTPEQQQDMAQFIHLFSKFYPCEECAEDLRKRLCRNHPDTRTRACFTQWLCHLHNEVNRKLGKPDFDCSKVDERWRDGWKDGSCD
B2AR ag: agonists of human beta-2 adrenergic receptor inducing internalization; 340,000 compounds, 0.43% hits; P07550; response, % (concentration not given with the values); Am2.2-beta2AR cells, FAP receptor internalization, flow cytometry; reference of the scale not given here; AID 504454;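 active means response above a set limit, near 3 SD of response in nonfluorescent compounds, cut at about 42% in these data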;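 further: stock transfer was 100 nL into about 11 µL; a reference agonist was the positive control; negative values mostly stem from fluorescent compounds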
Numbers without * were called inactive; i = inactive; x = not tested or not shown; & = joins results of further samples. Only part of the results is shown (hit frequency here may not be typical).

nr	structure	LANA-H2A inh	UCH37 DUB inh	Ecoli growth	HNF4A DNA FP	FGF22 binding	ALR H2O2 inh	B2AR ag
1	CC(=O)Nc1ccc(N/C=C2/CCCC2=O)cc1	0.6	19	0.66	1.6	i	46	1
2	COC(=O)c1c(NC(=O)C2C3CCC(O3)C2C(=O)O)sc2c1CCCCCC2 (stereo unspecified)	4.0	3.1	0.67	-2.3	x	7	-7
3	Cc1c(C=O)c2ccccc2n1CCOc1ccccc1	-4.9	2.5	0.65	2.6	i	-19	1
4	COC(=O)CNC(=O)c1cccc(-c2ccc(OC)cc2)c1	-6.2	1.9	0.7	1.6	i	-4	-13
5	O=C(Cn1cnc2ccccc2c1=O)OCC(=O)c1ccc2c(c1)OCCO2	5.5	2.1	0.71	-2.5	x	-1	0
6	O=C(CSC1=NS(=O)(=O)c2cc(F)ccc2N1)NCc1ccccc1	-0.9	2.1	0.62	3.8	i	14	-10
7	CCc1ccc(N(C(=O)C(F)(F)F)C(C(=O)NC2CCCCC2)c2ccncc2)cc1 (stereo unspecified)	-0.9	-0.7	0.67	-1.6	x	-3	1
8	CC(C)(C)NC(=O)c1ccc(Cn2cc(C(F)(F)F)ccc2=O)cc1	3.3	0.8	0.65	-4.4	i	21	4
9	OC1CCCN(CC(O)COC(c2ccc(F)cc2)c2ccc(F)cc2)C1 (stereo unspecified)	6.3	3.5	0.66	-2.1	i	-20	16
10	c1ccc(C2=NN(c3ccccc3)C(c3ccco3)C2)cc1 (stereo unspecified)	5.7	i	0.65	-3.7	i	9	7
11	CCOc1ccccc1NC(=O)CN1C(=O)COc2ccc(S(=O)(=O)N3CCOCC3)cc21	5.9	1.3	0.64	-3.8	i	-5	5
12	CCc1ccccc1NC(=O)Nc1cccn(Cc2ccccc2F)c1=O	-0.7	-3.9	0.7	1.9	i	x	-3
13	O=c1[nH]c(=O)n(Cc2ccccc2)c2c1CCC2	-6.7	4.2	0.68	-3.1	i	-7	1
14	COC(=O)c1ccc(OCC(O)CN(CCO)CCO)cc1 (stereo unspecified)	-0.2	0.5	0.72	1.4	x	9	-5
15	CCOC(=O)C1CCN(C(=O)COC(=O)CNC(=O)c2ccc(C(C)(C)C)cc2)CC1	1.2	4.5	0.71	-4.7	i	-1	5
16	NC(=O)COc1ccc(/C=C2\C(=O)ON=C2c2ccccc2)cc1	-1.5	1.0	0.65	-0.8	i	70	17
17	Cc1nn(C)cc1CNC(=O)Nc1ccc(Cl)cc1	4.3	5.3	0.63	2.0	x	-5	9
18	CCN(CC)C(=O)Cn1c(=O)n(-c2ccccc2)c(=O)c2c3c(sc21)CCC3	4.5	0.3	0.72	-1.9	x	9	-10
19	COC(=O)Nc1ccc2ccc3c(NC(=O)OC)ccc4ccc1c2c43	x	-196	0.7	18	i	x	-3
20	O=C(CSc1nnnn1C1CCCCC1)Nc1cccc(NC(=O)c2ccco2)c1	2.2	0.6	0.71	3.8	x	-14	-5
21	COc1ccc(N/C=C/C(=O)c2cc(OC)c(OC)c(OC)c2)cc1	12*	3.9	0.65	0.8	i	9	19
22	NC(=O)c1ccc(NC(=O)CCN2C(=O)c3ccccc3C2=O)cc1	-3.4	0.1	0.64	3.0	i	-6	-4
23	COc1ccccc1CNC(=O)c1cccc(-c2ccc(C)c3ccccc23)n1	8.1	6.7	0.71	x	i	x	x
24	CCn1c(SCC(=O)c2[nH]c(C)c(C(C)=O)c2C)nnc1-c1cccs1	2.0	6.7	0.69	-0.4	x	0	-34
25	CCOc1ccc(-n2c(=S)sc3c(=O)[nH]c(SCC(=O)NC(C)CC)nc32)cc1 (stereo unspecified)	2.6	12	0.72	0.2	x	1	5
26	O=C(NN1CCOCC1)c1ccccc1	8.7	2.4	0.67	-1.4	i	5	-2
27	O=C(NCc1ccccc1)c1cc(-c2ccncc2)nc2ccccc12	-2.6	1.2	0.6	0.7	i	-11	-2
28	O=C(O)/C=C\C(=O)Nc1ccccc1C(=O)NCc1ccccc1	-6.6	0.0	0.72	-0.8	x	-10	-2
29	CC[C@]12c3[nH]c4cc(CCC(=O)N(C)C)ccc4c3CCN1C(=O)[C@@H](CC(=O)NCc1ccc(OC)c(OC)c1)C[C@@H]2C(=O)N1CCN(C(=O)C2CC2)CC1	x	4.3	0.69	4.0	i	x	7
30	O=C(c1ccc(CSc2ccc(Cl)cc2)cc1)N1CCCC1	-3.2	8.7	0.7	-1.6	i	-3	0
31	O=C(NN=C1c2ccccc2-c2ccccc21)c1ccccn1	-0.9	-21	0.76	0.6	i	x	14
32	COc1ccc(NC(=O)CN(C)S(=O)(=O)c2ccc3c(c2)CC(C)N3C(C)=O)c(OC)c1 (stereo unspecified)	-2.0	0.9	0.66	0.3	i	-10	3
33	Cn1c(=O)[nH]c(=O)c2c1nc(OC(=O)c1ccccc1)n2CC(O)COc1ccccc1 (stereo unspecified)	-0.4	-5.1	0.76	3.6	x	3	-11
34	COc1ccc(-c2nn(-c3ccccc3)cc2C2CC(c3cccs3)=NN2C(=O)CCC(=O)O)cc1 (stereo unspecified)	2.1	-1.7	0.68	-0.3	i	8	-2
35	CCOC(=O)CSc1nc(N)nc(C)c1Cl	1.1	3.9	0.68	2.2	i	-2	-2
36	COc1ccc(N(CCC#N)S(=O)(=O)c2ccc(Cl)cc2)cc1	0.2	1.7	0.69	0.8	x	-2	-2
37	Cc1ccc(N(C(=O)c2ccncc2)C2C=CS(=O)(=O)C2)cc1 (stereo unspecified)	1.1	5.0	0.76	-2.1	i	32	5
38	COc1ccc(OC)c2c1sc(=NC(=O)C(C)C)n2C	-0.6	3.6	0.69	1.8	i	x	-2
39	CN1C(=O)C(C)(C)c2cc(S(=O)(=O)NCC3CCC(C(=O)NCc4ccccc4)CC3)ccc21 (stereo unspecified)	-3.8	4.9	0.72	1.7	i	3	-15
40	O=C(O)/C=C/C(=O)NC1CC1	-1.7	3.6	0.68	3.1	i	x	1
41	O=C(NC(=S)NNC(=O)c1ccccc1O)c1cccs1	2.4	5.3	0.54	0.5	i	4	11
42	Cc1ccc(C(=O)N/C(=C\c2cn(C)c3ccccc23)C(=O)NCCCN2CCOCC2)cc1	-3.9	11	0.61	1.1	i	12	3
43	CCCN(CC(=O)Nc1ccccc1C)C(=O)c1ccc(S(=O)(=O)N2CCC(C)CC2)cc1	x	4.0	0.69	-4.3	i	x	4
44	Cc1ccc(NC(=O)CN(C)C(=O)COC(=O)c2nc3nccc(C)n3n2)cc1	4.6	1.0	0.67	1.2	i	x	33
45	Cc1ccccc1NC(=O)CCN1CCCC1	0.5	3.5	0.65	0.4	i	3	-8
46	Cc1ccc(CNC(=O)c2ccc(Cl)c(S(=O)(=O)N3CCCCC3)c2)cc1	1.2	0.4	0.67	-2.3	i	-1	5
47	CCn1c(N2CCN(C(=S)NC)CC2)nc2ccccc21	-6.9	1.8	0.7	1.8	i	5	2
48	CC1=CC(C)(C)NC(=S)N1c1cccc(C)c1	-0.3	0.5&6.0	0.68&0.69	-0.1&-2.1	i	-2	-19&-2

Quoted at random: four entries already listed.
nr	structure	LANA-H2A inh	UCH37 DUB inh	Ecoli growth	HNF4A DNA FP	FGF22 binding	ALR H2O2 inh	B2AR ag
37	Cc1ccc(N(C(=O)c2ccncc2)C2C=CS(=O)(=O)C2)cc1 (stereo unspecified)	1.1	5.0	0.76	-2.1	i	32	5
44	Cc1ccc(NC(=O)CN(C)C(=O)COC(=O)c2nc3nccc(C)n3n2)cc1	4.6	1.0	0.67	1.2	i	x	33
38	COc1ccc(OC)c2c1sc(=NC(=O)C(C)C)n2C	-0.6	3.6	0.69	1.8	i	x	-2
48	CC1=CC(C)(C)NC(=S)N1c1cccc(C)c1	-0.3	0.5&6.0	0.68&0.69	-0.1&-2.1	i	-2	-19&-2

Continued.
nr	structure	LANA-H2A inh	UCH37 DUB inh	Ecoli growth	HNF4A DNA FP	FGF22 binding	ALR H2O2 inh	B2AR ag
49	CCOC(=O)c1c(NC(=O)c2ccccc2C)sc2c1CC(C)(C)OC2	-2.5	-28	0.72	-1.9	x	-17	10
50	CC(c1ccccc1)N1CCn2c(nc3cc(NC(=O)NC4CCCCC4)ccc32)C1 (stereo unspecified)	-2.9	-200	0.76	5.7	x	-15	14
51	Cn1cccc1Cc1nnc(SCC(=O)Nc2cccc(F)c2)n1-c1ccc(F)cc1	-3.1	3.1	0.68	1.8	i	5	5
52	Cc1ccc2nc(C)cc(NCCO)c2c1	3.2	4.1	0.72	0.0	x	5	0
53	CC1CC1C(=O)OCC(=O)NCc1ccccc1Cl (stereo unspecified)	-0.7	2.1	0.74	-1.4	x	-7	6
54	Cc1ccc2[nH]c3c(=O)n(Cc4ccccn4)cnc3c2c1	2.6	-11	0.7	-12	x	-1	2
55	O=C(NC(NC(=O)c1ccccc1)C(=O)c1ccccc1)c1ccccc1	3.5	0.9	0.73	-1.2	x	-2	-9
56	Cc1ccc2c(c1)cc(CN(CCc1ccccc1)C(=O)N1CCOCC1)c1nnnn12	-0.7	1.0	0.7	2.3	x	x	-11
57	CCC(=O)N/C(N)=N/c1nc(C)c2cc(OC)ccc2n1	0.6	-193	0.7	-1.1	x	-5	-20
58	c1csc(C(c2nnnn2C2CCCC2)N2CCOCC2)c1 (stereo unspecified)	0.6	1.1	0.75	-0.1	x	-6	2
59	CCC(C)c1ccc(NC(=S)NCCn2cc(Br)cn2)cc1 (stereo unspecified)	4.2	1.6	0.67	-2.5	i	-16	0
60	FC(F)(F)c1ccc(C2Nc3cccc4cccc(c34)N2)cc1	x	2.2	0.68	-6.2	i	x	9
61	CN(C)c1cc(-c2cccc([N+](=O)[O-])c2)oc(=O)c1Cl	3.8	3.8	0.68	0.8	i	6	-2
62	Cc1ccc(C(=O)COc2nc(C)nc3ccccc23)cc1	0.9	-1.2	0.69	15	x	-2	-5
63	O=C(NC1CCSC1=O)c1ccccc1 (stereo unspecified)	-3.5	0.4	0.75	-0.6	x	-1	-1
64	COc1cccc(/C=N/NC(=O)c2ccc(N(C)S(=O)(=O)c3ccccc3)cc2)c1OC	-2.5	x	x	-1.9	i	0	13
65	CC(=O)Nc1c(Cl)cc2c(c1Cl)Cc1cc(C#N)ccc1-2	x	x	x	0.0	i	x	-2
66	CCC(=O)Nc1ccccc1C(=O)OCC(=O)c1ccccc1	-6.3	1.0	0.61	-1.5	x	-3	-1
67	O=C(Cn1nc(C(=O)O)c2ccccc2c1=O)Nc1ccc2c(c1)C(=O)c1ccccc1C2=O	0.5	5.7	0.68	x	x	-4	x
68	CC(C)(C)NS(=O)(=O)c1ccc(CCC(=O)Nc2ccc3c(c2)OCCO3)cc1	0.6	-0.9	0.68	-0.3	x	0	-2
69	O=C1CN(C(=O)c2ccc(Br)o2)C(c2ccccc2)c2cc(F)ccc2N1 (stereo unspecified)	-5.3	0.5	0.76	-4.2	i	-5	-12
70	Nc1nc(SCC(=O)Nc2ccc(Br)cc2F)n[nH]1	5.3	-1.1	0.7	1.7	x	-8	-8
71	Cc1cccc(-c2noc(-c3ccno3)n2)c1	2.2	4.6	0.65	3.2	i	-2	1
72	COc1ccc(C2=CSC3=NCCN23)cc1[N+](=O)[O-]	4.4	2.9	0.67	-3.1	i	63	-3
73	COc1ccc(S(=O)(=O)Nc2cccc(-n3cnnn3)c2)cc1	1.9	-0.3	0.72	-2.8	i	-1	-6
74	Cc1cc(NC(=O)CSc2nnnn2C2CCCC2)no1	0.2	-0.7	0.63	-1.5	x	-5	-4
75	Cc1ccc(S(=O)(=O)NCCSC(C)(C)C)cc1	0.5	3.3	0.68	-1.3	x	-13	1
76	CCCCCCCCNc1ncnc2ccccc12	-2.8	2.6	0.5	-0.7	x	-3	-1
77	N#Cc1ccc(/C=C2\CCn3c2nc2cc(C(=O)O)ccc2c3=O)cc1	7.5	i	0.66	3.8	i	-2	10
78	COC(=O)c1cc(NC(=O)c2c(F)c(F)c(F)c(F)c2F)cc(C(=O)OC)c1	3.8	1.1	0.71	-0.3	i	-2	5
